Source: PubChem BioAssay
PABP FP inh – PABP-poly(A) binding inhibition; P11940; PABP-poly(A) RNA binding, fluorescence polarization; inhibition, % at 35 µM; 290,000 compounds, 1% hits; AID 2014;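 active means 50% or more with normal probe brightness, or confirmed in later tests; about a fifth of its hits are not listed in these tables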;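 further: calls also rest on retests at 20 µM and on dose response follow-up; controls were probe without protein and protein plus probe with vehicle; some compounds called inactive have numbers as strong as hits; many hits fall short of the cut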
Target sequence (P11940 whole entry, looked up): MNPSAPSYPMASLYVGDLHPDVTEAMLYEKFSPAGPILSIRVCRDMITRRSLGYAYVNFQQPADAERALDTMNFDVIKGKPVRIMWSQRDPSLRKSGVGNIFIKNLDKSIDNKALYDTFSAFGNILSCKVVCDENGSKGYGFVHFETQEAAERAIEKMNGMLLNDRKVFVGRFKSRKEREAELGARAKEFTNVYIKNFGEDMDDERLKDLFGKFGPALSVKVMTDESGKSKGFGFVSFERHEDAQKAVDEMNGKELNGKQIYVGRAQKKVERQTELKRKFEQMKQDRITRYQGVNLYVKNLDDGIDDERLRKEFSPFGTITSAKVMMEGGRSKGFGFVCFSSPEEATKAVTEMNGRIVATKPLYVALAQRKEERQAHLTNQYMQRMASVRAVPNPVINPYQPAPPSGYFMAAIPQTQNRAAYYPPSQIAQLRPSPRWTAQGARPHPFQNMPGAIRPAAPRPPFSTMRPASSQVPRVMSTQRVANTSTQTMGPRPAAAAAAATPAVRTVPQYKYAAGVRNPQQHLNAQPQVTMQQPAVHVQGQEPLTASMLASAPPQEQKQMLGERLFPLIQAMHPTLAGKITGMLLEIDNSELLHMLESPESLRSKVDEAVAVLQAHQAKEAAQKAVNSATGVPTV
Env fusion inh – inhibitors of HIV Env-mediated cell fusion; 360,000 compounds, 1.1% hits; AID 651610; HeLa-JRFL Env/CEM21 cell fusion, luciferase; inhibition, % at 12.3 µM;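 active means mean replicate inhibition score of at least 50 and every replicate individually at or above 50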;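 further: 0% = plate neutral controls and 100% = maraviroc near 300 nM; one replicate is shown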
MT1-MMP act inh – MT1-MMP (human) activation inhibition; P50281; HT1080 RFP-PRO-GFP cells, GFP/RFP ratio fluorescence, overnight; percent of plate control window, DMSO zero; GFP/RFP ratio change, % at 20 µM; 360,000 compounds, 0.061% hits; AID 651647;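 active means GFP/RFP ratio change of at least 30% with cell ATP level not reduced by more than half and red fluorescence within 50% of control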; further: strong numbers were not always called active
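Test system: HT1080 cells expressing an RFP-PRO-GFP fluorescent reporter construct / Compound dosing: single-point 20 µM compound, 1% DMSO / Schedule: cells overnight before dosing, compound overnight, 37 °C, 5% CO2 / Evaluation: GFP/RFP fluorescence ratio / Control set: DMSO and RFP-L50D-GFP cell wells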
CSC inhib – cancer stem cell inhibition; inhibition, % at 7.5 µM; cancer stem cell-like cells viability, luminescence; AID 2717; 300,000 compounds, 1.1% hits;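 active means mean at 75% or more and at least half the replicates too; tested in HMLE shEcad cells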;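 further: 0% = median of negative and 100% = median of positive control wells; the first replicate is given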
Yeast UUG start – modulators of start codon recognition fidelity in yeast | activity score, % at 18.7 µM | 350,000 compounds, 0.13% hits | S. cerevisiae UUG-firefly luciferase reporter, luminescence/redox ratio;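 active means replicate mean at a twofold rise or more, about +100% in these data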;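 further: firefly luciferase made from a UUG start codon reports start codon fidelity; reporter light over untreated wells divided by growth signal over untreated wells; some hits fall short of that in this replicate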
eIF4H inh – inhibitors of RNA binding by human eIF4H; inhibition, % at 35 µM; eIF4H fluorescence polarization binding assay; 290,000 compounds, 0.94% hits; Q15056;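 active means 50% or more with normal probe brightness, or confirmed in later tests; about a fifth of its hits are not listed in these tables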;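 further: calls also rest on retests at 20 µM and on dose response follow-up; 0% = protein and probe with vehicle and 100% = probe without protein; strong numbers were not always called active; many hits fall short of the cut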
Rce1 inh – blocks yeast Ras-converting enzyme. 290,000 compounds, 0.27% hits. yeast membranes, quenched prenylated peptide cleavage fluorescence. Q03530. calls only;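 active means fall in fluorescence gain of 50% or more versus controls, with final raw signal at or below 3038400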;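 further: plate controls were neutral control wells for no effect and wells lacking membranes for full effect; tested at 10 µM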
eIF4H inh retest – recorded beside eIF4H inh, whose call it bears; inhibition, %; compound at 20 µM; confirmation average;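 mean of two retest wells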
PABP FP inh retest – recorded beside PABP FP inh, whose call it bears; inhibition, %; compound at 20 µM; confirmation repeats;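 mean of two retest wells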
MT1-MMP act inh RFP – further read-out of MT1-MMP act inh, marked with its call; RFP signal change, %; measured here: RFP expression control read;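 0 = vehicle wells; hits needed this value within 50% of zero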
The depositor's hits bear a star; i = inactive; x = not tested or not shown.

SMILES	PABP FP inh	Env fusion inh	MT1-MMP act inh	MT1-MMP act inh RFP	CSC inhib	Yeast UUG start	eIF4H inh	Rce1 inh	others
c1ccc2c(c1)COc1c3ncccc3nn1-2	x	-34	8	3	x	-22	x	x
COc1ccc(S(=O)(=O)N2CCCC2C(=O)NCc2ccccc2Cl)cc1 (stereo unspecified)	-6	13	-2	1	-7	-18	7	i
O=C(CN1C(=O)CNC1=O)Nc1ccc(Cl)cc1	4	1	4	4	-6	-16	-4	i
O=C(O)c1cc(S(=O)(=O)O)ccc1O	1	x	1	6	-5	-14	-8	i
O=C(CNc1cccc(S(=O)(=O)N2CCOCC2)c1)Nc1cccc(Br)c1	x	26	0	-11	-2	-15	x	i
Cc1ccc(NC(=O)CCn2nc([N+](=O)[O-])cc2C)nc1	6	-9	2	-2	-6	x	-1	i
Nc1cc(F)ccc1N1CCCCCC1	13	10	5	0	-2	-16	45	i
COC(=O)C(CCCN1C(=O)c2ccccc2C1=O)(NC(C)=O)c1nn[nH]n1 (stereo unspecified)	-8	-2	-5	0	-7	x	-9	i
Cc1ccccc1-c1ccc(Nc2ccc(N3CCOCC3)cc2)nn1	3	x	6	6	-6	x	-4	i
CC(=O)N1CCC(C(=O)NCCOc2cccc(C)c2)CC1	7	-2	6	6	-6	-3	1	i
CCOC(=O)c1cc2sccc2n1CC(=O)N1c2ccccc2CC1C (stereo unspecified)	-2	-107	-4	-1	10	x	-3	i
COC(=O)C(C)Sc1nnc(SC(C)C(=O)OC)s1 (stereo unspecified)	8	x	2	2	6	-1	-2	i
COc1ccc(NC(=O)c2c3c(nc4ccccc24)CCC3)cc1S(=O)(=O)N1CCOCC1	8.5*	22	-3	5	-7	-14	99	i	eIF4H inh retest=4;PABP FP inh retest=70*
O=S(=O)(NCc1cccs1)c1ccc(Cl)s1	0	-2	-5	-2	-8	-1	-17	i
CCC1(c2ccc(F)cc2)NC(=O)N(CC(=O)c2cc(C)n(C3CC3)c2C)C1=O (stereo unspecified)	x	6	1	-3	0	7	x	i
CC(Sc1nnc2n1CCCCC2)C(=O)Nc1ccccc1[N+](=O)[O-] (stereo unspecified)	x	-3	-2	1	-15	14	x	x
Cc1ccc(C(C)c2c(C)c([N+](=O)[O-])cc(C)c2[N+](=O)[O-])cn1 (stereo unspecified)	4	26	3	-16	31	-22	1	i
CC(=O)c1ccc(OC(C)C)c(CSc2nc(O)cc(=O)[nH]2)c1	32	x	3	4	-4	6	4	i
O=S(=O)(c1ccccc1)C(/C=N\O)/C=C/c1ccccc1 (stereo unspecified)	18	14	-1	6	24	x	11	i
S=c1[nH]nc(-c2ccncc2)n1/N=C/c1cn(-c2ccccc2)nc1-c1ccccc1	-4	-33	-2	-8	42	-17	-1	i
O=C1C(=O)N(CCCN2CCOCC2)C(c2ccc(Cl)cc2)/C1=C(\O)c1ccc2c(c1)OCCO2 (stereo unspecified)	-1	-7	0	5	-2	10	-10	i
O=C(N=C1SC2CS(=O)(=O)CC2N1c1ccc(F)cc1)C1CCCCC1 (stereo unspecified)	x	23	-2	2	-10	2	x	i
c1ccc(CCCOCCC2CO2)cc1 (stereo unspecified)	4	x	x	x	1	x	1	i
CCOc1cc(S(=O)(=O)n2nc(C)cc2C)ccc1F	11	-34	0	1	1	-11	5	i
O=C(CS(=O)(=O)c1cn(CC(=O)N2CCOCC2)c2ccccc12)Nc1ccccc1F	-4	2	12	-1	x	0	3	i
CCN(C(=O)CN1C(=O)S/C(=C\c2ccc(Cl)cc2)C1=O)C1CCS(=O)(=O)C1 (stereo unspecified)	4	-5	-3	-1	-13	-15	-13	i
Cn1c(=O)oc2cc(S(=O)(=O)NC3CCN(Cc4ccccc4)CC3)ccc21	8	-1	1	3	-4	6	1	i
COc1cc(/C=C2\SC(c3ccc(C)cc3)=NC2=O)cc(OC)c1OC	14	x	-3	-4	14	-8	6	i
O=S(=O)(c1ccc(Cl)nc1)N1CCCc2ccccc21	-5	-10	-1	1	1	x	-10	i
Cc1ccc(N2CS(=O)(=O)/C(=C/N(C)C)C2=O)cc1	4	-45	2	2	-17	-28	7	i
CCC(C)(C(=O)NC1CCCC1)N(Cc1cccs1)C(C)=O (stereo unspecified)	-1	x	-9	6	-13	-15	-3	i
N#CC1=C(N)OC(c2ccccc2)=C(C#N)C1c1ccc2c(c1)OCO2 (stereo unspecified)	5	-8	-6	-2	-11	-6	-2	x
CC1CN(Cc2ccccc2)C(=S)N(c2ccccc2)C1=O (stereo unspecified)	x	30	-2	-3	x	-9	x	x
CN1C(=O)/C(=C/c2ccco2)SC1=Nc1cccc(C(=O)O)c1	-1.6*	x	-3	8	-15	x	99*	i	eIF4H inh retest=106*;PABP FP inh retest=78*
COc1ccc(-n2c(-c3ccc(Br)cc3)c[n+]3c2CCC3)cc1	-2	36	-13	-28	2	-4	14	i
O=C(/C=C/c1ccco1)N1CCc2ccccc21	95	-176	-6	0	4	-44	18*	i	eIF4H inh retest=60*;PABP FP inh retest=25
Cc1ccc(-c2cc(C(=O)NCCCN3CCOCC3)c3ccccc3n2)cc1	x	-4	-2	-1	1	-19	x	i
O=C1c2ccc(-c3ccc(F)cc3OCc3ccccc3)cc2S(=O)(=O)c2cccc(C(=O)N3CCCC3)c21	x	x	3	-13	-2	-4	x	x
O=C(/C=N/O)NCCCN1CCOCC1	0	8	1	2	-12	-11	-4	i
Cc1cc(OCC(=O)NNC(=O)c2ccncc2)cc(C)c1Cl	1	x	1	4	0	-22	4	i
O=C(Nc1ccc(C(=O)N2CCCCC2)cc1)C1CCCCC1	2	-63	-1	5	-3	7	4	i
NC(=O)c1ccc(-n2nnnc2SCC(=O)Nc2ccccc2F)cc1	-2	-3	0	0	-13	-14	-3	i
COc1ccccc1N=Cc1c(O)c2ccccc2oc1=O	12	6	-3	11	-6	-29	-2	i
O=c1[nH]c(CNCc2cccnc2)nc2ccccc12	-4	-22	1	4	-8	x	-6	i
COc1ccc(OCC(=O)Nc2c(C(=O)N(CCN(C)C)Cc3ccco3)oc3ccccc23)cc1	-2	18	-2	-2	37	3	5	i
OCC1CCCCN1CC(O)COC(c1ccc(F)cc1)c1ccc(F)cc1 (stereo unspecified)	1	8	-1	0	5	-13	10	i
O=C(CC1SC(N2CCCC2)=NC1=O)Nc1ccc(C(=O)N2CCCC(C(F)(F)F)C2)cc1 (stereo unspecified)	x	0	-1	-1	-3	x	x	i
C[C@H]1C(=O)N(C)CCN1C(=O)c1ccc(OC2CCN(CCc3ccccc3)CC2)cc1	x	-5	2	3	x	-2	x	x
CC(NC(=O)/C=C/c1ccccc1[N+](=O)[O-])C1CC2CCC1C2 (stereo unspecified)	-4	-30	-3	-2	x	18	1	i
CCOC(=O)c1nnn(-c2nonc2N)c1-c1ccc(OC)cc1	-7	x	-2	6	-5	x	-1	i
Other records follow:
SMILES	PABP FP inh	Env fusion inh	MT1-MMP act inh	MT1-MMP act inh RFP	CSC inhib	Yeast UUG start	eIF4H inh	Rce1 inh	others
COc1ccc(-n2nc(C(=O)NCC(=O)Nc3cc(OC)c(OC)c(OC)c3)c3ccccc3c2=O)cc1OC	5	17	-7	5	20	-9	8	i
CC1CCN(S(=O)(=O)c2cccc(-c3cn4cc(Cl)ccc4n3)c2)CC1	-3	x	3	-4	5	-11	-10	i
COC(=O)c1cc(OC)c(OC)cc1NC(=O)Cc1cccs1	7	19	0	-4	-4	-23	10	i
COc1ccc(/C=N/N(c2ccccc2)c2ccccc2)cc1O	1	-19	-1	-1	81*	-14	-10	i
Cn1c(Cc2cccs2)nnc1SC/C=C/c1ccccc1	5	x	-7	-4	-6	x	0	i
COc1ccc(C(=O)Nc2ccc(S(=O)(=O)N3CCCCC3)cc2)cc1	-1	46	-2	-5	1	x	-10	i
COc1ccc(N(C)S(=O)(=O)c2cccc3cccnc23)c(OC)c1	-1	x	-3	-8	x	0	3	i
Cc1c(OCC(=O)NCCCn2ccnc2)ccc2c3c(c(=O)oc12)CCC3	1	-3	5	3	-16	-15	-7	i
COc1ccc(N=CC2=C(O)CC(C)(C)CC2=O)cc1	3	x	0	-3	-7	2	-3	i
O=C(c1ccc(F)cc1)C1CCN(C(=O)NC2CCCCC2)CC1	-2	27	3	-1	-6	x	-1	i

Arranged by length of the SMILES (high to low): part of the list above.
SMILES	PABP FP inh	Env fusion inh	MT1-MMP act inh	MT1-MMP act inh RFP	CSC inhib	Yeast UUG start	eIF4H inh	Rce1 inh	others
Cc1c(OCC(=O)NCCCn2ccnc2)ccc2c3c(c(=O)oc12)CCC3	1	-3	5	3	-16	-15	-7	i
COc1ccc(C(=O)Nc2ccc(S(=O)(=O)N3CCCCC3)cc2)cc1	-1	46	-2	-5	1	x	-10	i
COc1ccc(N(C)S(=O)(=O)c2cccc3cccnc23)c(OC)c1	-1	x	-3	-8	x	0	3	i
O=C(c1ccc(F)cc1)C1CCN(C(=O)NC2CCCCC2)CC1	-2	27	3	-1	-6	x	-1	i
Cn1c(Cc2cccs2)nnc1SC/C=C/c1ccccc1	5	x	-7	-4	-6	x	0	i

The list continues.
SMILES	PABP FP inh	Env fusion inh	MT1-MMP act inh	MT1-MMP act inh RFP	CSC inhib	Yeast UUG start	eIF4H inh	Rce1 inh	others
CCOCCCNC(=S)N(Cc1ccco1)Cc1cc2cc3c(cc2[nH]c1=O)OCCO3	4	6	-4	-5	7	x	1	i
COc1ccc(C)cc1Nc1n[n+](C)c(-c2ccc(O)cc2O)s1	-7	-11	-2	4	7	-1	-12	i
O=C1C2CCCN2C(=O)N1CCCCN1CCN(c2cccc(C(F)(F)F)c2)CC1 (stereo unspecified)	9	13	2	-1	-1	-1	6	i
CCc1ccc(NC(=O)CSc2nnc(CNC(=O)c3ccc(OC)cc3)o2)cc1	-5	-5	0	4	0	-1	-7	i
O=C(CCCC1=NS(=O)(=O)c2ccccc2N1)NCCc1ccc(Cl)cc1	x	5	4	2	-6	1	x	i
COc1ccc(Cl)cc1NS(=O)(=O)c1cccc(C(=O)NCC(c2ccco2)N2CCCC2)c1 (stereo unspecified)	x	-7	-2	-5	23	x	x	i
CN(C)/C=C(\C#N)C(=O)Nc1ccc(F)c(Cl)c1	7	-41	2	-5	-4	x	1	i
O=C(COC(=O)C12CC3CC(CC(C3)C1)C2)NC12CC3CC(CC(C3)C1)C2	-4	26	-14	-4	12	6	-6	i
Cc1cccc(Sc2c(C=O)c3ccccc3n2C)c1	-4	x	-9	-4	15	-9	6	i
COc1ccc(C(=O)OCC(=O)N(C)C2CCS(=O)(=O)C2)cc1S(=O)(=O)N(C)Cc1ccccc1 (stereo unspecified)	x	4	0	-3	-5	x	x	i
O=C(Nc1ccccc1C(=O)O)/C(=C/c1ccc([N+](=O)[O-])cc1)NC(=O)c1ccc(Br)o1	6	15	5	6	-7	x	10	i
COc1cccc(CN(CC2CCCO2)S(=O)(=O)c2ccc(-n3cnnn3)c(OC)c2)c1 (stereo unspecified)	-2	10	-3	-1	-7	x	-1	i
CN1CCN(S(=O)(=O)c2cccc(C(=O)Nc3ccccc3N3CCCCC3)c2)CC1	x	1	0	-4	59	x	x	i
COc1ccc2cc(CN(Cc3ccco3)C(=S)NCC3CCCO3)c(=O)[nH]c2c1 (stereo unspecified)	8	-8	-4	-3	x	x	-5	i
COc1ccc(-n2ncc3c2CC(C)(C)CC3NC(=O)CCc2c(C)noc2C)cc1 (stereo unspecified)	10	-12	2	2	-25	-4	-5	i
CC(=O)Cn1c(CN2CCN(C(=O)c3ccco3)CC2)nc2c1c(=O)n(C)c(=O)n2C	0	-14	1	2	-6	-8	-13	i
O=C(CSC1CCCCC1)Nc1ccccc1Br	-2	8	-2	1	x	x	-7	i
CN1CCN(S(=O)(=O)c2ccc3[nH]cc(C(=O)O)c(=O)c3c2)CC1	-6	-80	-2	1	x	-6	-14	i
